Screening data deposited in PubChem BioAssay by National Center for Advancing Translational Sciences (NCATS).
gsp ag: agonists of gsp mutant (McCune-Albright syndrome). gsp mutant cells, cAMP HTRF, 30 min; control for the full effect not named in the record. Potency, µM (series often up to 76.9 µM), for inactives: top-dose activation (cAMP increase), hits mostly activators. 340,000 tested, 0.13% active. AID 624287; active = well fitted activation curve with a large enough effect; inconclusive = small, poorly fitted or top-dose-only effect, or another doubt; inactive = no such curve, though single readings can be large or run the other way; cell line not stated here;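 further: phosphodiesterase inhibitor Ro 20-1724 added with compounds to block cAMP breakdown; potency means the concentration at half of the fitted maximal effect; nearly all actives have a fitted effect of over 60% in size; about a fifth of the inactives were tested at one dose only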
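Cells in DMEM/10% FBS with G418 were pretreated with compounds in DMSO plus […] (300 uM stock) for 30 min at 37C. cAMP was measured by HTRF (cAMP-d2 plus anti-cAMP antibody-K) after 30 min at room temperature.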
D2 ag: activates the human D2 dopamine receptor | P14416 | DiscoveRx PathHunter D2 beta-arrestin, luminescence, 90 min; 100% = 57 uM dopamine signal | activation, % (concentration not given with the values) | 360,000 tested, 0.084% active; in the data active = activation above about 40%; inconclusive = about 15% to 40%; inactive = below about 15%; further: compound concentration not given in the record; the text of the record calls up to 30% inactive
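DiscoveRx PathHunter D2 beta-arrestin cells (2,100/well) attached overnight, then compound-stimulated 90 min at 37 C in HBSS/10 mM HEPES/0.1% Tween-20 buffer; beta-galactosidase complementation read by luminescence after 1 h at ambient temperature. Dopamine 57 uM final (EC100) as control.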
gsp antagonist: gsp mutant antagonism; gsp-mutant cells, cAMP HTRF, 30 min; control for the full effect not named in the record; Potency, µM (top dose mostly 76.9 µM), for the others: top-dose activity change, negative = inhibition, usual class: inhibitors; 340,000 tested, 0.4% active; active = falling curve of any shape with a large fitted effect; inconclusive = falling curve, mostly with a smaller effect; inactive = flat or rising curve; cell line not stated here;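 further: intracellular cAMP measured with PDE inhibitor Ro 20-1724 present during compound exposure; potency means the concentration at half of the fitted maximal effect; on the % scale 0 is the no-effect control and ±100 the full control effect; nearly all actives have a fitted effect of over 65% in size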
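Cells, 2000/well, grown 16–24 h in DMEM 10% FBS with 0.5 mg/ml G418, then compounds plus […] (300 uM addition stock), 30 min at 37C. cAMP read by HTRF (cAMP-d2 and anti-cAMP antibody-K in lysis buffer) after 30 min RT.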
CtBP-E1A inh: CtBP/E1A binding inhibition; AlphaScreen GST-E1A/His-CtBP binding, 1536-well; stronger effect = lower value; control for the full effect not named in the record; activity change, % (concentration not given with the values); 340,000 tested, 0.49% active; AID 651724; in the data active means activity change below about -65%; inconclusive means about -30% to -65%; inactive means above about -30%; further: on the % scale 0 is the no-effect control and ±100 the full control effect
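GST-E1A and His-tagged CtBP (125 nM each as 5X stock) were preincubated with pin-transferred compound for 2 h at 37 °C in the dark, then glutathione donor and nickel acceptor beads were added for 1 h before AlphaScreen reading.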
Six1-Eya2 blk: Six1/Eya2 interaction inhibition | activity change, % (no concentration beside the values) | 360,000 tested, 0.56% active | Q15475+O00167 | AlphaScreen GST-Six1/His-Eya2 binding, biochemical; stronger effect = lower value; control for the full effect not named in the record; in the data active = activity change below about -65%; inconclusive = about -30% to -65%; inactive = above about -30%; further: on the % scale 0 is the no-effect control and ±100 the full control effect; compound concentration not given in the record
Target sequence (O00167 whole entry, looked up): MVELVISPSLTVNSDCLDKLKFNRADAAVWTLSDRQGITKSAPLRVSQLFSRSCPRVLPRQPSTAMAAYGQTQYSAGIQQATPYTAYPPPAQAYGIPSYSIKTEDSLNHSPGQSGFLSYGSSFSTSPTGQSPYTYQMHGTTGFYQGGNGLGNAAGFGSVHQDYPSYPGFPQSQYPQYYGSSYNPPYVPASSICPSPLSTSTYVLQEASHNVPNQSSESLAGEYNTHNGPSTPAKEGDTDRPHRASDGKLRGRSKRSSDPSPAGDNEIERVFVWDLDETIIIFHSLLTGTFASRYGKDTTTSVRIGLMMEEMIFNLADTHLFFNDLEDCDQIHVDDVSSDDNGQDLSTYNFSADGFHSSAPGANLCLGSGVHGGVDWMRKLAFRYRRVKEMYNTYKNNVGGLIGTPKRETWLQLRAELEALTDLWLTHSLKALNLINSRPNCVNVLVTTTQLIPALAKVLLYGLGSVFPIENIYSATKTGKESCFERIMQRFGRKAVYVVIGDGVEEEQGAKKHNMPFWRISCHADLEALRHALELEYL
Target sequence (Q15475 whole entry, looked up): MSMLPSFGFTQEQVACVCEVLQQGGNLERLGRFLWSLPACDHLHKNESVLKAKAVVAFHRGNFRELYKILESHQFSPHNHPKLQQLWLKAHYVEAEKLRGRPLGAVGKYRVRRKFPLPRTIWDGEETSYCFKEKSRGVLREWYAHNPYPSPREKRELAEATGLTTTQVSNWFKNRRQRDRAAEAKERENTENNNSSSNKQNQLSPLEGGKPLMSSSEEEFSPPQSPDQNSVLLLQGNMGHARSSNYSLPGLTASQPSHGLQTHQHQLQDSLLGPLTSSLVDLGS
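Six1/Eya2 binding was read as AlphaScreen signal after compounds were pinned into GST-Six1 plus His-tagged Eya2 (5X stock 250/500 nM) in pH 8.0 Tris/NaCl/TCEP buffer, beads added, then incubated 1 h, 37 C, dark.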
D2 PAM: positive allosteric modulators of human D2 dopamine receptor; P14416; DiscoveRx D2 beta-arrestin cells, luminescence, 90 min; 100% = 57 uM dopamine signal; potentiation, % (no concentration beside the values); 360,000 tested, 0.23% active; AID 624464; active = potentiation of 50% or more; inconclusive = 30% to 50%; inactive = 30% or less;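 further: compound concentration not given in the record; tested on top of an EC20 dose of dopamine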
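PathHunter beta-arrestin assay in DiscoveRx D2 cells. Compounds were added with an EC20 of dopamine (50 nM final) for 90 min at 37 deg C. Luminescence was read 1 h after detection reagent, with 57 uM dopamine as the EC100 control.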
* hit, by the source's call; [ ] = another dose, or the depositor's remark. Compounds as they come. About 1.4% of those tested had a hit in this group.

Cc1nn(C(=O)CCC(=O)NCc2ccccc2Cl)c2ccccc12 was read as gsp ag 7%, D2 ag -2.0, gsp antagonist 3%, CtBP-E1A inh 3, Six1-Eya2 blk 1 and D2 PAM -10.
For Cc1nccn1S(=O)(=O)c1ccc(Br)cc1Br the results were gsp ag -40%[inhibitor], D2 ag -1.2, gsp antagonist 19%, CtBP-E1A inh 0, Six1-Eya2 blk 8 and D2 PAM -1.
COC(=O)C1=C(C)N(CCCC(=O)O)C(=O)NC1c1ccc(C#N)cc1 (stereo not given) was read as D2 ag -1.9, gsp antagonist 3%, CtBP-E1A inh -7, Six1-Eya2 blk 4 and D2 PAM -55.
Screening O=C(Nc1ccncc1)c1ccc(Cl)cc1 returned gsp ag inconclusive, D2 ag 15, gsp antagonist 4%, CtBP-E1A inh 9, Six1-Eya2 blk 11 and D2 PAM -4.
For O=C(Nc1ccc(Cl)cn1)c1cccc(S(=O)(=O)N2CCCCCC2)c1 the results were gsp ag -15%, D2 ag -1.7, CtBP-E1A inh 1, Six1-Eya2 blk -14 and D2 PAM -9.
`OCC1(CCOc2ccccc2)CCN(Cc2ccccc2OC(F)F)CC1` gave gsp ag -149%[inhibitor], D2 ag -1.3, gsp antagonist 5%, CtBP-E1A inh 0, Six1-Eya2 blk 16 and D2 PAM -25.
For C=CCOC(=O)c1cn(CC)c2nc(C)ccc2c1=O the results were gsp ag 7%[15.4 µM], D2 ag -2.3, gsp antagonist -5%, CtBP-E1A inh -7, Six1-Eya2 blk -8 and D2 PAM -4.
Screening O=C(Nc1nc(-c2ccccc2)cs1)c1ccc(=O)[nH]c1 returned gsp ag 5%[15.4 µM], D2 ag 3.6, gsp antagonist -18%, CtBP-E1A inh -1, Six1-Eya2 blk 0 and D2 PAM -5.
For Cc1cc(CNC(=O)c2ccc3oc(C(C)C)nc3c2)nn1C the results were gsp ag 24%, D2 ag -4.0, gsp antagonist 1%, CtBP-E1A inh -1, Six1-Eya2 blk 3 and D2 PAM -15.
Screening Cc1ccc(C)c(NC(=S)Nc2ncccc2C)c1 returned gsp ag -3%[15.4 µM], D2 ag -6.6, gsp antagonist -7%, CtBP-E1A inh inconclusive, Six1-Eya2 blk -22 and D2 PAM -17.
`Cn1c(SCC(=O)O)nnc1-c1ccc(NC(=O)c2ccc(Cl)c(Cl)c2)cc1` gave gsp ag 8%[15.4 µM], D2 ag 0.0, gsp antagonist -14%, CtBP-E1A inh -10, Six1-Eya2 blk 0 and D2 PAM -4.
For CCn1c(Cc2ccccc2)n[nH]c1=S the results were gsp ag 3%, D2 ag -3.9, gsp antagonist 6%, Six1-Eya2 blk 11 and D2 PAM -16.
For CC(=O)c1ccc(N2CCN(C(=O)c3cn(Cc4ccccc4)nc3-c3cccnc3)CC2)c(F)c1 the results were gsp ag inconclusive, D2 ag -0.5, gsp antagonist -14%, Six1-Eya2 blk -2 and D2 PAM -5.
For N#Cc1ccc(OC(=O)c2cnccn2)cc1 the results were gsp ag 2%, D2 ag 6.7, gsp antagonist 12%, CtBP-E1A inh -6, Six1-Eya2 blk -3 and D2 PAM -3.
Cc1cnn(CCC(=O)NNC(=S)NCC(C)C)c1 was read as gsp ag -36%[inhibitor], D2 ag -5.4, gsp antagonist 9%, CtBP-E1A inh -21, Six1-Eya2 blk -4 and D2 PAM -26.
For CC1CN(S(=O)(=O)c2ccc(C(=O)N(CCCN(C)C)c3nc4c(Cl)cccc4s3)cc2)CC(C)O1 (stereo not given) the results were gsp ag inconclusive, D2 ag -4.1, gsp antagonist 3%, CtBP-E1A inh -21, Six1-Eya2 blk -12 and D2 PAM -29.
`CCCCn1c(N)c(N(CC(C)C)C(=O)CSc2n[nH]c(-c3ccc(C)cc3)n2)c(=O)[nH]c1=O` gave gsp ag -18%, D2 ag -8.0, gsp antagonist 9%, CtBP-E1A inh 1, Six1-Eya2 blk 0 and D2 PAM -23.
Screening N#CC(C#N)=C(N)CSc1cccc[n+]1[O-] returned gsp ag 17%[15.4 µM], D2 ag -4.4, gsp antagonist 6%, CtBP-E1A inh -16, Six1-Eya2 blk -6 and D2 PAM -6.
Screening CC1(C(=O)Nc2ccc3c(c2)OCCO3)CCC(=O)N1CCc1c[nH]c2ccccc12 (stereo not given) returned D2 ag -4.8, CtBP-E1A inh -3, Six1-Eya2 blk 2 and D2 PAM -9.
Screening CCCCCNC(=O)c1cccc(S(=O)(=O)N2CC3(C)CC2CC(C)(C)C3)c1 (stereo not given) returned gsp ag -21%, D2 ag -1.6, gsp antagonist -8%, CtBP-E1A inh 3, Six1-Eya2 blk -1 and D2 PAM -3.
CN(C)c1cccc(CNC(=O)c2ccc3nc([C@@H]4O[C@H](CO)[C@H](O)[C@H](O)[C@H]4O)[nH]c3c2)c1 was read as D2 ag -4.4, CtBP-E1A inh 1, Six1-Eya2 blk 0 and D2 PAM -11.
`COc1cc2[nH]c(=O)n(Cc3ccc(C(=O)N4CCC(N5CCCCC5)CC4)cc3)c(=O)c2cc1OC` gave gsp ag -29%, D2 ag -0.1, gsp antagonist 11%, CtBP-E1A inh -22, Six1-Eya2 blk -25 and D2 PAM -3.
`O=C(Nc1ccc(SC(F)F)cc1)c1cc(-c2ccncc2)nc2ccccc12` gave gsp ag -32%[inhibitor], D2 ag 0.4, gsp antagonist -26%, CtBP-E1A inh 0, Six1-Eya2 blk 2 and D2 PAM -5.
Cc1ccc(-c2csc(NCCn3c(C)nc4cc(C(F)(F)F)ccc43)n2)cc1 was read as gsp ag -20%, D2 ag -2.3, gsp antagonist -14%, CtBP-E1A inh 0, Six1-Eya2 blk -9 and D2 PAM -10.
`C/C(=N\NC(=S)NC(C)C)c1ccc(C(C)(C)C)cc1` gave gsp ag 4%[15.4 µM], D2 ag -6.8, gsp antagonist -21%, CtBP-E1A inh -19, Six1-Eya2 blk -14 and D2 PAM -3.
`Fc1ccccc1CSc1ncnc2c1ncn2C1CCCO1` (stereo not given) gave gsp ag 4%, D2 ag 7.0, gsp antagonist 5%, CtBP-E1A inh -17, Six1-Eya2 blk -8 and D2 PAM 4.
CN[C@H](C(=O)NC[C@H]1O[C@@H](n2cnc3c(N)ncnc32)[C@H](O)[C@@H]1O)[C@@H](C)OCc1ccccc1 was read as D2 ag -3.5, gsp antagonist 1%, CtBP-E1A inh -11, Six1-Eya2 blk -1 and D2 PAM -4.
CC1(C)CC(=O)c2c(nc3ccccc3c2N)C1 was read as gsp ag 1%, D2 ag -3.7, gsp antagonist 10%, CtBP-E1A inh 6, Six1-Eya2 blk 0 and D2 PAM -10.
O=C1OCCN1C(=O)[C@H]1[C@H](c2ccc(F)cc2)C(c2ccc(F)cc2)=NN1c1ccccc1 was read as D2 ag -3.2, gsp antagonist -8%, CtBP-E1A inh 19, Six1-Eya2 blk 18 and D2 PAM -5.
`Cc1c(C(=O)N2CCN(c3ccc(F)cc3)CC2)sc2nc3n(c(=O)c12)CCC3` gave gsp ag 20%, D2 ag -2.2, gsp antagonist 2%, CtBP-E1A inh 1, Six1-Eya2 blk -1 and D2 PAM 4.
CCOc1cc(N2CCOCC2)c(OCC)cc1NC(=O)c1cccc(N(C)C)c1 was read as gsp ag -8%[15.4 µM], D2 ag 1.0, gsp antagonist -17%, CtBP-E1A inh -3, Six1-Eya2 blk -23 and D2 PAM -2.
Screening CSc1ccccc1NC(=S)NCc1ccc(Cl)cc1 returned gsp ag -48%[inhibitor], D2 ag -2.9, gsp antagonist -13%, CtBP-E1A inh 3, Six1-Eya2 blk -8 and D2 PAM -9.
COc1ccccc1C(=O)NN=C1CCN(Cc2ccccc2)CC1 was read as gsp ag -33%[inhibitor], D2 ag -6.0, gsp antagonist 7%, CtBP-E1A inh 19, Six1-Eya2 blk 5 and D2 PAM -20.
For CC1(C(=O)NS(=O)(=O)C2CC2)CCCN(C(=O)c2cc3ccccc3s2)C1 (stereo not given) the results were D2 ag -2.2, CtBP-E1A inh 5, Six1-Eya2 blk 19 and D2 PAM -15.
For CCOC(=O)C1CCCN(C(=O)Cn2nc(CC)n3c(cc4sccc43)c2=O)C1 (stereo not given) the results were gsp ag -33%[inhibitor], D2 ag 2.8, gsp antagonist -12%, CtBP-E1A inh 1, Six1-Eya2 blk 5 and D2 PAM 0.
For Cc1sc2nc(SCC(N)=O)n(C)c(=O)c2c1C the results were gsp ag 17%, D2 ag -2.0, gsp antagonist 11%, CtBP-E1A inh 0, Six1-Eya2 blk -7 and D2 PAM 1.
Screening COC(=O)c1cn(NC(=O)c2cccnc2)c(=O)c2ccccc12 returned gsp ag 17%, D2 ag 0.2, gsp antagonist 3%, CtBP-E1A inh -2, Six1-Eya2 blk 6 and D2 PAM -3.
Screening COc1ccc(NC(=O)CN(C)C(=O)c2cccc(NS(=O)(=O)c3ccc(Br)cc3)c2)cc1 returned gsp ag 1%[15.4 µM], D2 ag -7.7, gsp antagonist -5%, CtBP-E1A inh 1, Six1-Eya2 blk -3 and D2 PAM -10.
`CCNC(=O)NC1(C(=O)N2CCC(Cc3ccccc3)CC2)CCCCC1` gave gsp ag 14%, D2 ag -1.1, gsp antagonist -1%, CtBP-E1A inh 1, Six1-Eya2 blk 4 and D2 PAM -4.
Screening COc1ccc(C(O)c2nc(-c3cccc(O)c3)cs2)cc1 (stereo not given) returned D2 ag 3.5, CtBP-E1A inh 1, Six1-Eya2 blk 0 and D2 PAM -8.
Screening Cc1cc(C)cc(-n2cc(C(=O)O)c(=O)cc2C)c1 returned gsp ag 2%, D2 ag -1.8, gsp antagonist -1%, CtBP-E1A inh 4, Six1-Eya2 blk 5 and D2 PAM -4.
CCOCCn1c(CN2CCN(C)CC2)nc2c1c(=O)n(C)c(=O)n2C was read as gsp ag 20%, D2 ag -2.5, gsp antagonist 0%, CtBP-E1A inh -15, Six1-Eya2 blk 3 and D2 PAM -4.
CCOC(=O)c1ccc(N/N=C/c2cc(Br)cc([N+](=O)[O-])c2O)cc1 was read as gsp ag -15%[15.4 µM], D2 ag 0.6, CtBP-E1A inh -11, Six1-Eya2 blk -12 and D2 PAM -13.
CCOC(=O)c1ccc(NC(=O)CCc2nc(-c3ccc(Cl)cc3)no2)cc1 was read as gsp ag -12%, D2 ag 1.3, gsp antagonist -32%, CtBP-E1A inh 6, Six1-Eya2 blk 0 and D2 PAM 4.
For COc1cccc(CNC(=O)c2ccc(NC3=NC4CS(=O)(=O)CC4S3)cc2)c1 (stereo not given) the results were gsp ag 16%, D2 ag 2.0, gsp antagonist 6%, CtBP-E1A inh 3, Six1-Eya2 blk 0 and D2 PAM -5.
